Yeast UUG start: alters start codon recognition fidelity in yeast; S. cerevisiae UUG-firefly luciferase reporter, luminescence/redox ratio; 350,000 compounds, 0.13% hits; activity score, % at 18.7 µM;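 active = replicate mean at a twofold rise or more, about +100% in these data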;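 note: firefly luciferase made from a UUG start codon reports start codon fidelity; reporter light over untreated wells divided by growth signal over untreated wells; some hits fall short of that in this replicate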
Rce1 inhib: yeast Ras-converting enzyme inhibition | yeast membranes, quenched prenylated peptide cleavage fluorescence | calls only | 290,000 compounds, 0.27% hits | AID 2563;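 active = fall in fluorescence gain of 50% or more versus controls, with final raw signal at or below 3038400; inconclusive = same 50% fall but final raw signal above 3038400; inactive = fall in fluorescence gain under 50%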;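 note: plate controls were neutral control wells for no effect and wells lacking membranes for full effect; tested at 10 µM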
Target sequence (Q03530 whole entry, looked up): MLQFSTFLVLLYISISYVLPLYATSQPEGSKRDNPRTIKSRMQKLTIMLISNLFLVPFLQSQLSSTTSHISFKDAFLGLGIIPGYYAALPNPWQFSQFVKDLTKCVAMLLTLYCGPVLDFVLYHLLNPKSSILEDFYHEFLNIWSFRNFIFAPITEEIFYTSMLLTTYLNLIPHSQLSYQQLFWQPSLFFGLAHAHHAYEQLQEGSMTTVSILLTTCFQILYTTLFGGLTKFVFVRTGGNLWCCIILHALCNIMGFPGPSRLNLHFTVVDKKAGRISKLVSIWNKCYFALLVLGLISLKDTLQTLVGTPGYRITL
MT1-MMP act inh: MT1-MMP (human) activation inhibition; P50281; HT1080 RFP-PRO-GFP cells, GFP/RFP ratio fluorescence, overnight; percent of plate control window, DMSO zero; GFP/RFP ratio change, % at 20 µM; 360,000 compounds, 0.061% hits; AID 651647;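 active = GFP/RFP ratio change of at least 30% with cell ATP level not reduced by more than half and red fluorescence within 50% of control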; note: strong numbers were not always called active
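Assay system: HT1080 RFP-PRO-GFP cells | Dosing: 20 µM single dose, 1% DMSO | Incubation: Cells overnight before dosing, compound overnight, 37 °C, 5% CO2 | Evaluation: GFP/RFP fluorescence ratio | Control set: DMSO-only wells and HT1080 RFP-L50D-GFP cell wells as references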
CSC inhib: cancer stem cell inhibition. cancer stem cell-like cells viability, luminescence. inhibition, % at 7.5 µM. 300,000 compounds, 1.1% hits. AID 2717;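 active = mean at 75% or more and at least half the replicates too; inconclusive = mean and replicates disagree; tested in HMLE shEcad cells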;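 note: 0% = median of negative and 100% = median of positive control wells; the first replicate is given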
HIV Env fusion: blocks HIV Env-driven cell-cell fusion. inhibition, % at 12.3 µM. 360,000 compounds, 1.1% hits. HeLa-JRFL Env/CEM21 cell fusion, luciferase;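 active = mean replicate inhibition score of at least 50 and every replicate individually at or above 50; inconclusive = only one of the two criteria met; inactive = mean below 50 and not all replicates reaching 50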;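 note: 0% = plate neutral controls and 100% = maraviroc near 300 nM; one replicate is shown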
eIF4H FP inh: inhibitors of RNA binding by human eIF4H. Q15056. eIF4H fluorescence polarization binding assay. inhibition, % at 35 µM. 290,000 compounds, 0.94% hits. AID 2012;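 active = 50% or more with normal probe brightness, or confirmed in later tests; inconclusive = above 50% with abnormal brightness, or retests that disagree; inactive = below 50% or failed in later tests; about a fifth of its hits are not listed in these tables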;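 note: calls also rest on retests at 20 µM and on dose response follow-up; 0% = protein and probe with vehicle and 100% = probe without protein; strong numbers were not always called active; many hits fall short of the cut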
PABP polyA inh: PABP-poly(A) binding inhibition | P11940 | PABP-poly(A) RNA binding, fluorescence polarization | inhibition, % at 35 µM | 290,000 compounds, 1% hits | AID 2014;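 active = 50% or more with normal probe brightness, or confirmed in later tests; inconclusive = above 50% with abnormal brightness, or retests that disagree; inactive = below 50% or failed in later tests; about a fifth of its hits are not listed in these tables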;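 note: calls also rest on retests at 20 µM and on dose response follow-up; controls were probe without protein and protein plus probe with vehicle; some compounds called inactive have numbers as strong as hits; many hits fall short of the cut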
eIF4H FP inh retest: also measured in eIF4H FP inh; calls as there; inhibition, %; compound at 20 µM; confirmation average;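 mean of two retest wells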
PABP polyA inh retest: second read-out of PABP polyA inh, no call of its own (marks repeat the call); inhibition, %; compound at 20 µM; confirmation repeats;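 mean of two retest wells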
MT1-MMP act inh RFP: second read-out of MT1-MMP act inh, no call of its own (marks repeat the call); RFP signal change, %; measured here: RFP expression control read;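 0 = vehicle wells; hits needed this value within 50% of zero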
The depositor's hits bear a star; i = inactive; ? = inconclusive; · = no result given.

SMILES	Yeast UUG start	Rce1 inhib	MT1-MMP act inh	MT1-MMP act inh RFP	CSC inhib	HIV Env fusion	eIF4H FP inh	PABP polyA inh	others
C(=N\n1cnnc1)/c1ccc2c(c1)OCO2	-19	i	2	3	-6	-39	1	8
CCOc1ccc(NS(=O)(=O)c2cc(NC(=O)C3CC3)ccc2C)cc1Br	-25	·	-3	-11	14	12	·	·
O=C1COc2ccc(C(=O)COC(=O)Cc3ccc(Cl)cc3)cc2N1	·	i	5	-1	-1	8	6	2
COc1ccc(CC(=O)NCc2nnc(SCc3ccc([N+](=O)[O-])cc3)n2C)cc1	-12	i	1	3	-1	-1	-12	-3
O=C1CC(Nc2ccc(N3CCOCC3)cc2)C(=O)N1C1CCCCC1 (configuration not stated)	-57	i	0	3	-6	·	-6	-10
O=C(NCCc1ccccc1)C1CCC(CNc2c(N3CCCCC3)c(=O)c2=O)CC1 (configuration not stated)	-4	i	-2	3	0	6	6	8
COc1ccc(C(=O)C2CCCN(Cc3ccc4nonc4c3)C2)cc1F (configuration not stated)	-13	i	4	4	10	31	2	8
O=C(CCS(=O)(=O)c1ccc(F)cc1)Nc1nccs1	-11	·	2	0	·	7	·	·
CCn1c(SCC(=O)N2CCC(C(N)=O)(N3CCCCC3)CC2)nnc1-c1ccccc1	-7	i	4	0	·	·	6	8
Cc1ccccc1NC(=O)c1ccccc1NS(=O)(=O)c1cccc2cccnc12	22	i	4	5	0	·	-8	1
CC1CN(C(=O)CCC(=O)NCc2ccc(Cl)cc2)c2ccccc2S1 (configuration not stated)	6	i	0	0	·	-18	4	0
CC1CCCC(C)N1C(=O)COC(=O)c1cccnc1Cl (configuration not stated)	-2	·	0	3	-11	·	·	·
Cc1ccc([C@@H]2CC=C(C(=O)O)CN2S(=O)(=O)c2ccccc2C)cc1	5	·	1	0	4	-23	·	·
CN(CC(=O)NCc1ccccn1)S(=O)(=O)c1ccc(Br)cc1	·	i	-2	3	-10	-8	-14	-2
Cc1noc(C)c1NC(=O)N(C)C[C@H]1Oc2ccc(NS(=O)(=O)c3c(C)noc3C)cc2C(=O)N([C@H](C)CO)C[C@@H]1C	-9	·	0	1	-16	-5	·	·
COc1ccc(-c2cnn3c4c(c(C)nc23)CCN4C(C)C)cc1OC	-2	i	16	-1	·	-75	2	3
Cc1sc2nc(C(C)Sc3n[nH]c(N)n3)[nH]c(=O)c2c1C (configuration not stated)	·	i	·	·	1	1	-2	-7
CCn1c(SCC(=O)NC2CCCC2)nnc1-c1cccnc1	-18	i	2	4	-4	19	3	-4
COc1cccc(CN(C)Cc2nc(C3CC3)no2)c1	·	i	1	-5	-6	5	-10	-7
Cc1c(NC(=S)SCc2ccccc2)c(=O)n(-c2ccccc2)n1C	·	i	0	2	-14	21	0	9
Fc1ccccc1NC(=S)NCCc1ccccc1	-19	i	2	-2	-2	·	0	8
Cc1ccc2oc(C(=O)N3CCN(c4cccc(C)n4)CC3)c(C)c2c1	0	i	-3	1	39	-9	11	6
Cc1ccc(NC(=O)C2OCCc3ccccc32)cc1Cl (configuration not stated)	0	i	4	3	·	-18	5	4
CCc1ccc(/C=N\n2cnnc2)cc1	-10	i	-1	0	7	-45	-10	-8
Cc1c(C(=O)NCc2ccccn2)oc2ccc(Br)cc12	-19	i	1	2	-6	-111	·	·

(next part)
SMILES	Yeast UUG start	Rce1 inhib	MT1-MMP act inh	MT1-MMP act inh RFP	CSC inhib	HIV Env fusion	eIF4H FP inh	PABP polyA inh	others
CCOCCCNS(=O)(=O)c1ccc(-n2cnnn2)c(OC)c1	·	i	1	4	-1	15	-14	-12
Cc1ccc2[nH]c(-c3cccc(N)c3)cc2c1	-14	i	0	-2	5	-275	-12	2
CCCCN(C(=O)Cc1ccc(S(=O)(=O)N2CCOCC2)s1)c1c(N)n(CCCC)c(=O)[nH]c1=O	·	i	-6	-2	2	-3	·	·
CNC(=S)N(CCc1c(C)[nH]c2ccc(Cl)cc12)Cc1cccs1	·	i	·	·	25	·	0	1
CCCCSc1nc2c(=O)[nH][nH]c(=O)c2n1Cc1ccccc1	-10	i	4	1	1	·	-3	-7
CCOC(=O)N1CCN(S(=O)(=O)c2ccc(C)cc2)C1c1ccc(OC)cc1 (configuration not stated)	12	i	1	1	-3	-42	-3	-4
COc1cc(OC)c(C2C(C(=O)O)c3ccccc3C(=O)N2C)cc1OC (configuration not stated)	-12	i	1	5	-2	·	-2	-5
COc1ccc(N2CCC(CNC(=O)Nc3ccc(C)c(C)c3)C2)cc1 (configuration not stated)	-5	i	0	3	-3	21	-9	8
CCN(CC(=O)Nc1ccc2c(c1)OCCO2)C(=O)c1cccc(OCC(C)C)c1	-10	i	3	3	0	-29	-14	-2
Cc1cc(C(=O)COc2cccnc2[N+](=O)[O-])c(C)n1-c1ccccc1	·	i	-12	-4	1	19	37	-8
O=C(c1ccc(Cl)cc1)N(Cc1ccc(Br)cc1)N1C(=O)CCC1=O	·	i	4	3	3	-1	4	6
CCCCC(=O)Nc1ccc(NC(=O)c2cc(OC)c(OC)c(OC)c2)cn1	-4	i	3	4	0	29	11	8
C/C(=N\Nc1ccc(C(F)(F)F)cc1[N+](=O)[O-])C(C)C	33	i	1	3	2	·	-7	2
CCOc1ccc(-n2c(=O)[nH]cc(C(=O)N3CCCc4ccccc43)c2=O)cc1	·	i	3	6	-18	-1	-1	2
c1ccc(-n2nnnc2SCc2cccc3nsnc23)cc1	-1	i	-3	-1	15	12	1	-7
COc1ccc(OC)c(Nc2nc(-c3ccccc3O)nc3ccccc23)c1	·	i	0	1	-12	1	-11	1
COc1cc(NC(=O)CCNC(=O)Cn2cnc3sc4c(c3c2=O)CCCC4)cc(OC)c1OC	-30	i	-1	3	-7	4	16	5
Cc1ccccc1N(C(=O)CCC(=O)Nc1ccccn1)C(C(=O)NC(C)C)c1ccc(O)cc1 (configuration not stated)	·	i	·	·	·	·	-5	-7
Cc1ccc(SCC(=O)N2CCC(C(N)=O)CC2)cc1	·	i	5	4	-11	-5	-4	0
O=C(/C=C/c1ccco1)Nc1ccc(-c2nc3ccccc3[nH]2)cc1	-13	i	3	-6	66	5	-10	2
COc1ccccc1-n1c(=O)[nH]c2c(C(N)=O)nc(C3CCCCC3)nc21	5	i	8	6	-10	7	2	20
CN1CCN(c2nc(NCCOC34CC5CC(CC(C5)C3)C4)nc(OCC(F)(F)F)n2)CC1	2	i	·	·	3	·	-3	-5
Cc1cccc(CN2CCOCCS2(=O)=O)c1	-24	i	1	3	-5	-1	-8	-2
CCc1ccc(N2CC(C(=O)N3CCCC3)CC2=O)cc1 (configuration not stated)	·	i	-1	1	-24	-16	-11	4
NC1=NC(=O)C2(COC(c3cccnc3)OC2)S1 (configuration not stated)	-11	i	0	-3	-12	-61	1	1

Further structures
SMILES	Yeast UUG start	Rce1 inhib	MT1-MMP act inh	MT1-MMP act inh RFP	CSC inhib	HIV Env fusion	eIF4H FP inh	PABP polyA inh	others
COc1ccc(Cn2c(C3CC3)nc3ccc(NC(=O)C4CC4)cc3c2=O)cc1	-2	i	3	-1	·	-333	-12	-7
CCc1nn(CC(=O)N(C)C2CCCCC2)c(=O)c2cc3cc(C)ccc3n12	-5	i	5	-6	·	-2	5	6
NS(=O)(=O)c1cccc(NC(=O)COC(=O)C2(c3cccc(F)c3)CCCC2)c1	·	i	1	-5	-6	-1	-5	12
CN(CP(=O)(O)C(O)c1ccccc1)S(C)(=O)=O (configuration not stated)	-6	i	2	1	-7	·	-5	19
CC1CN(C(=O)c2cc(S(=O)(=O)N3CCCC3)c(Cl)cc2Cl)CC(C)O1 (configuration not stated)	8	i	3	3	-9	·	-1	-13
O=C(CSc1nc(N2CCCCC2)nc(N2CCCCC2)n1)N1CCN(c2ccccc2)CC1	-9	i	-22	-20	·	·	-14	-7
Cc1c(N2CCCCC2)[nH]c2ccccc12	8	·	2	4	·	-14	·	·
CC(C)c1ccc(C(=O)N2CCN(CCO)CC2)cc1	-13	i	-3	0	-34	·	-4	7
CC(C)(C)NC(=O)N1CCN(c2nc3ccc(Cl)cc3s2)CC1	-7	i	-5	-20	·	17	-7	2
COc1ccccc1OCCOCCN1CCCC1	-12	i	0	4	-15	-30	-4	-8
Cc1ccc(S(=O)(=O)Nc2ccc(Nc3nccn4c(-c5cccc(OC(F)(F)F)c5)cnc34)cc2)cc1	-4	·	-5	-18	·	8	·	·
COc1ccc(C)cc1N(CC(=O)NC(C)c1ccccc1)S(C)(=O)=O (configuration not stated)	-9	i	-2	-3	-4	1	8	-6
Cc1ccc(N(CCCCN2C(=O)c3ccccc3C2=O)C(=O)c2cccs2)cc1	-11	i	-5	-6	0	·	0	-3
O=C(NCCc1ccc(Cl)cc1)c1ccc2nc(N3CCOCC3)sc2c1	-15	i	4	-4	-14	9	-11	-3
O=C(NCc1ccc(F)cc1)N[C@@H](Cc1ccccc1)C(=O)O	-9	i	-4	1	·	-56	-4	-2
Oc1ccc(Cl)c2cccnc12	-15	·	5	6	·	-31	·	·
O=c1c2ccccc2n2nnnc2n1-c1ccccc1	-12	i	-3	5	4	·	-3	2
CCN(CC)C(=O)Oc1ccc(Br)cc1C(=O)Nc1ccc(F)c(Cl)c1	-7	i	-5	1	5	?	3	7
CCOC(=O)N1CCN(C(=O)c2cn(CC(C)C)c(=O)c3c2c2ccccc2n3C)CC1	-7	i	0	1	-4	-40	-6	4
O=C(N/N=C/c1ccc(O)c(O)c1)N/N=C/c1ccc(O)c(O)c1	-15	i	-1	-4	12	-69	56*	42	eIF4H FP inh retest=94*;PABP polyA inh retest=42
C=CCn1c(-c2cc(-c3ccccc3)sc2N)n[nH]c1=S	-6	i	6	-4	17	-19	-1	-2
Cc1c(NC(=O)CSc2nnc(-c3cccnc3)n2N)c(=O)n(-c2ccccc2)n1C	0	·	2	5	-25	·	·	·
COc1cccc2cc(C(=O)C3=C(O)C(=O)N(CCN4CCOCC4)C3c3cccs3)oc12 (configuration not stated)	·	i	0	5	-9	·	14	14
CCN(CC)S(=O)(=O)c1ccc(Cl)c(NC2=NCCCCC2)c1	-18	i	2	-1	0	1	7	-9
COc1cccc(OC)c1C(=O)OCC(=O)NCCCc1ccccc1	3	i	-1	-2	-6	1	-10	8
O=C(NCc1ccco1)c1ccc(-c2ccccc2Cl)o1	-20	i	-5	-4	8	-25	-5	-8
Cc1ccc(OCC(=O)Nc2ccc(CN3CCOCC3)cc2)cc1C	-3	i	-7	-3	10	28	-12	-5
Cc1ccc(C(C)(C)C)c(OCCOCCN2CCCC2)c1	·	i	2	2	44	·	-9	1
COc1ccc(C(=O)NCC(=O)N/N=C/c2cccnc2)cc1	-21	i	-2	2	1	-6	-17	-3

Random excerpt: five entries already listed
SMILES	Yeast UUG start	Rce1 inhib	MT1-MMP act inh	MT1-MMP act inh RFP	CSC inhib	HIV Env fusion	eIF4H FP inh	PABP polyA inh	others
Cc1ccc(OCC(=O)Nc2ccc(CN3CCOCC3)cc2)cc1C	-3	i	-7	-3	10	28	-12	-5
COc1cccc(OC)c1C(=O)OCC(=O)NCCCc1ccccc1	3	i	-1	-2	-6	1	-10	8
O=C(N/N=C/c1ccc(O)c(O)c1)N/N=C/c1ccc(O)c(O)c1	-15	i	-1	-4	12	-69	56*	42	eIF4H FP inh retest=94*;PABP polyA inh retest=42
COc1ccccc1OCCOCCN1CCCC1	-12	i	0	4	-15	-30	-4	-8
Cc1ccc(C(C)(C)C)c(OCCOCCN2CCCC2)c1	·	i	2	2	44	·	-9	1

Assay outcomes: PubChem, several laboratories
